PKD1 kinase inh – PKD1 (human) kinase inhibition | Q15139 | PKD1 kinase fluorescence polarization assay | inhibition, %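 (about 10 µM by stock and volumes)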 | 200,000 compounds, 0.056% hits;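 active = inhibition of 50% or more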;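 also: controls were vehicle for no effect and a reference inhibitor for full effect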
INS promoter inh – TRM-6 insulin promoter activity inhibition; TRM-6 cells (human fetal islet line), insulin promoter-eGFP reporter, imaging; reporter expression induced with tamoxifen; inhibition, % at 2 µM; 130,000 compounds, 0.9% hits; AID 1273;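 active = inhibition above the mean plus 3 SD, with well images judged a real hit on visual review, cut at about 60% in these data, passing the limit was not always enough; inconclusive = inhibition over the cutoff but images rejected on review; inactive = inhibition not above the cutoff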
GALR2 ag – agonists of human galanin receptor 2 (GALR2). 140,000 compounds, 0.48% hits. GALR2-expressing cells, agonist activation read-out. O43603. activation, %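 (tested at 5 µM)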;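 active = above mean plus 3 SD of all compounds, about 5% in these data, not always enough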;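 also: 0% = vehicle buffer wells and 100% = reference agonist at full effect; tested in CHO reporter cells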
Target sequence (O43603 whole entry, looked up): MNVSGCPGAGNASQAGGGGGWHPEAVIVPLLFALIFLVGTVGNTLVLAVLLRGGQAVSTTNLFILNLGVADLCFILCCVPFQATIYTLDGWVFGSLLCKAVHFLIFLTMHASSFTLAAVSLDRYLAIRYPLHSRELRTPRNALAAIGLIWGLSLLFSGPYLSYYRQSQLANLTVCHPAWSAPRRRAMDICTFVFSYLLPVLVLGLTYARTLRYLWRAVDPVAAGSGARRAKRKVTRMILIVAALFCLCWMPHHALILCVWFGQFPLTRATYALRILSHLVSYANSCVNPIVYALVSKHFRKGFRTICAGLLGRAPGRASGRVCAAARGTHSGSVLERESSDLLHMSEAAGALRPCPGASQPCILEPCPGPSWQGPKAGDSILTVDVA
HSV replic up – HSV replication enhancement. HSV replication augmentation in cells, fold increase. maximum fold increase. 220,000 compounds, 0.005% hits. AID 1956;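 active = peak rise of 1.5-fold or more in the series; inconclusive = self-fluorescent or not available for retest; tested in PC3 cells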;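 also: first round at 10 µM; read as green reporter fluorescence; hits show the peak of a series up to 25 µM; 1 = signal of infected wells without compound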
RGS16-Gao – regulators of human RGS16-Galphao interaction | 220,000 compounds, 0.38% hits | bead-based flow cytometry RGS16-Galphao binding, fluorescence; actives lie on both sides | binding response (% of control), % at 10 µM | AID 1441 | O15492+P09471;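 active = below 25% or above 175%, edge rows of some plates excepted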;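 also: Galphao activated by GDP with aluminum fluoride before binding; 100% = wells without compound and 0% = beads without RGS; some results beyond the cut were filed as inactive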
Target sequence (O15492 whole entry, looked up): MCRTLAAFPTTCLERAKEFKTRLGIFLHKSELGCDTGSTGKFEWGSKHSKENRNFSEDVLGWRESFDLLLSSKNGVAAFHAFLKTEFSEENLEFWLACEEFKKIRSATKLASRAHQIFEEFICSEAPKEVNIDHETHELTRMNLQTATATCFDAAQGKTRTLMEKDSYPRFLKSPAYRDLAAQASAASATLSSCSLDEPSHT
Target sequence (P09471 whole entry, looked up): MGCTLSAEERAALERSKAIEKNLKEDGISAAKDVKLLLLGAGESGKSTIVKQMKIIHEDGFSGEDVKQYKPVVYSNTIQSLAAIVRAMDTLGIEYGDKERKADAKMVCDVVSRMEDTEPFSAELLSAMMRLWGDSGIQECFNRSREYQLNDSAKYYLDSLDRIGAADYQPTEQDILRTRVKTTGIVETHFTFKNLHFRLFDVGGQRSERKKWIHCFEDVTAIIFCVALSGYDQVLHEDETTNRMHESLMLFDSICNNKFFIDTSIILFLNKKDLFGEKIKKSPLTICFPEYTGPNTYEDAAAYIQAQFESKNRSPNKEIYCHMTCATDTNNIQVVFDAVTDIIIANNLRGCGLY
INS promoter inh cell count – recorded beside INS promoter inh, whose call it bears; normalized cell count, %; measured here: cell count, toxicity; reference of the scale not given here;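 cells exposed to compound for 48 h; stained nuclei by imaging scaled within each plate; lower means fewer cells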
HSV replic up primary fold – further read-out of HSV replic up, marked with its call; fold increase; compound at 10 µM; measured here: primary screen fold increase 10 uM; tested in PC3 cells;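 GFP signal in the first replicate; 1 = infected wells without compound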
* hit, by the source's call; i = inactive; ? = inconclusive; nt = no result given. This is a random part of the collection; about 1.1% have a hit in one of these screens.

SMILES	PKD1 kinase inh	INS promoter inh	INS promoter inh cell count	GALR2 ag	HSV replic up	HSV replic up primary fold	RGS16-Gao
Fc1ccc(COc2ccc3ccccc3c2CNc2nn[nH]n2)cc1	-8	nt	nt	nt	i	0.84	103
CCCCCOC(=O)CSc1n[nH]c(=O)[nH]c1=O	4	16	93	3.5	i	0.68	103
N#Cc1ccccc1NC(=O)CSc1nnc(-c2ccccc2)n1-c1ccccc1	-4	19	66	-0.7	i	1	100
O=C(Nc1ccc(N2CCOCC2)cc1)c1cccc(S(=O)(=O)N2CCC(Cc3ccccc3)CC2)c1	-13	33	16	-1.4	i	0.82	94
Clc1ccc2nc(N3CCCCC3)sc2c1	-7	nt	nt	0.6	i	1.2	99
Cc1cc(C)cc(NC(=O)C(OC(=O)c2ccc([N+](=O)[O-])o2)c2ccccc2)c1 (stereo unspecified)	8	-40	55	-0.7	i	1	96
COc1ccccc1N1CCN(C(=S)NC(=O)/C=C/c2ccc(F)cc2)CC1	nt	nt	nt	nt	i	0.9	103
COc1ccc(C(=O)Nc2ccc(Cl)cc2C(=O)NCCN2CCOCC2)cc1	-5	-5	189	0.1	i	0.88	106
COc1ccc(S(=O)(=O)N(C)C)cc1NC(C)C(=O)Nc1cccc(C#N)c1 (stereo unspecified)	-5	-15	98	nt	i	1	108
COc1ccc(-n2c(C)nc3cc(C(=O)NCCN4CCOCC4)ccc32)cc1	5	nt	nt	0.7	i	1	99
CC1CN(CCOCCSc2ccccc2)CC(C)O1 (stereo unspecified)	-7	nt	nt	nt	i	0.97	100
CCOC(=O)c1oc2ccccc2c1NC(=O)c1ccc(Cl)s1	-3	nt	nt	0.5	i	0.91	101
Cc1ccc(NC(=O)C(C)c2cccc(C(=O)c3ccccc3)c2)cc1O (stereo unspecified)	-5	-64	153	-0.9	i	0.99	100
CCOC(=O)C1=C(O)C(Nc2nc3ccccc3s2)(C(F)(F)F)N=C1C (stereo unspecified)	-1	-20	56	0.0	i	1.1	99
O=C(O)CCCC(=O)NCc1ccccn1	-5	11	131	-1.7	i	1	101
CN1CCc2nc(NC(=O)COc3ccc4ccccc4c3)sc2C1	1	-45	70	nt	i	1	98
CC(=O)Nc1cccc(Oc2ncccc2[N+](=O)[O-])c1	nt	nt	nt	nt	i	1.1	92
CCOC(=O)C1=C(CP(=O)(c2ccccc2)c2ccccc2)NC(=O)NC1c1ccc(OC)cc1 (stereo unspecified)	3	nt	nt	-0.3	i	0.84	123
COc1ccc(-c2ccc([C@H]3[C@H]4C=CC[C@@H](C)[C@@H]4C(=O)N3Cc3ccccc3)c(F)c2)cc1	nt	nt	nt	nt	i	1	104
O=C(c1ccc(S(=O)(=O)N2CCOCC2)cc1)N1CCc2ccccc2C1	-2	-25	58	-0.9	i	0.92	99
c1ccc(COc2cccc(CNCc3cccnc3)c2)cc1	0	nt	nt	nt	i	0.91	92
CC1(C)Cc2c(c(N3CCOCC3)nc3sc(C(=O)N4CCCCC4)c(N)c23)CO1	1	nt	nt	-0.2	i	0.99	93
CNc1nc(-c2ccc(Cl)cc2)cs1	9	30	118	-0.5	i	0.95	100
CC(C(=O)N1CCOCC1)c1ccc([N+](=O)[O-])cc1 (stereo unspecified)	-15	37	114	-1.8	i	0.97	74

Exported bar-delimited: six of the compounds above
SMILES | PKD1 kinase inh | INS promoter inh | INS promoter inh cell count | GALR2 ag | HSV replic up | HSV replic up primary fold | RGS16-Gao
COc1ccc(-c2ccc([C@H]3[C@H]4C=CC[C@@H](C)[C@@H]4C(=O)N3Cc3ccccc3)c(F)c2)cc1 | nt | nt | nt | nt | i | 1 | 104
O=C(c1ccc(S(=O)(=O)N2CCOCC2)cc1)N1CCc2ccccc2C1 | -2 | -25 | 58 | -0.9 | i | 0.92 | 99
c1ccc(COc2cccc(CNCc3cccnc3)c2)cc1 | 0 | nt | nt | nt | i | 0.91 | 92
CC1(C)Cc2c(c(N3CCOCC3)nc3sc(C(=O)N4CCCCC4)c(N)c23)CO1 | 1 | nt | nt | -0.2 | i | 0.99 | 93
CNc1nc(-c2ccc(Cl)cc2)cs1 | 9 | 30 | 118 | -0.5 | i | 0.95 | 100
CC(C(=O)N1CCOCC1)c1ccc([N+](=O)[O-])cc1 (stereo unspecified) | -15 | 37 | 114 | -1.8 | i | 0.97 | 74

Additional records.
SMILES	PKD1 kinase inh	INS promoter inh	INS promoter inh cell count	GALR2 ag	HSV replic up	HSV replic up primary fold	RGS16-Gao
O=C1C2CSCN2C(=O)CN1CCCN1CCN(C(c2ccccc2)c2ccccc2)CC1 (stereo unspecified)	-3	-17	88	-0.5	i	0.98	95
Cc1ccc(C(=O)/C=C/c2ccccc2)o1	2	-27	103	-0.9	i	0.82	103
Cc1ccc(Cl)cc1N=C(N)N=C(N)N	1	nt	nt	nt	i	0.99	92
Cn1nnnc1SCc1nnc(-c2ccc(F)cc2)o1	1	10	76	-2.0	i	0.9	107
C=CCSc1nsc(N)n1	-6	nt	nt	-1.8	i	0.94	106
O=C(NCC1CCCO1)c1onc(CSc2ccc(Cl)cc2)c1C(=O)O (stereo unspecified)	-14	-8	105	-0.8	i	0.97	77
CC1CCN(S(=O)(=O)c2ccc(C(=O)Nc3sccc3C(N)=O)cc2)CC1	13	nt	nt	-1.7	i	0.74	101
Clc1ccc(OCCCc2nc(-c3cccnc3)no2)c(Cl)c1	0	nt	nt	-0.4	i	0.98	94
CC(C)C(=O)NC(=S)Nc1ccc(S(=O)(=O)N2CCCC2)cc1	-4	38	104	-0.5	i	1	102
COc1ccc(-c2cc(C(F)(F)F)nc(SCC(=O)NCc3ccco3)n2)cc1OC	-10	-280	74	0.1	i	0.91	57
COC(=O)c1[nH]c2c(c1C)C(=O)CC(c1cc(OC)ccc1OC)C2 (stereo unspecified)	-2	nt	nt	1.8	i	0.73	99
Cc1ccccc1CS(=O)(=O)Cc1ccc(C(=O)NCc2cccnc2)o1	6	8	131	-1.4	i	0.91	96
CN(C)/C=C/C(=O)c1c(F)cccc1F	nt	nt	nt	nt	i	1	101
COc1cccc(NC(=O)Nc2ccc(C)c(Cl)c2)c1	5	nt	nt	nt	i	0.93	105
COc1ccc(CCC(=O)Nc2cc(S(C)(=O)=O)ccc2Cl)cc1	-7	nt	nt	nt	i	0.97	93
Cc1ccc(C(=O)NCc2ccc3c(c2)OCO3)cc1S(=O)(=O)N1CCOCC1	-3	-80	74	-0.8	i	0.86	101
CC(CCc1ccccc1)NC(=O)Cc1ccc([N+](=O)[O-])cc1 (stereo unspecified)	-1	-28	94	-0.6	i	1	107
COc1ccccc1C1C([N+](=O)[O-])=CC([N+](=O)[O-])=CN1C (stereo unspecified)	-1	nt	nt	-0.1	?	nt	87
COc1ccc(-c2[nH]ncc2CN2CCCC(C(=O)c3ccc(OC)cc3OC)C2)cc1 (stereo unspecified)	-1	nt	nt	nt	i	1.1	102
CC(O)[C@H]1CNC(=O)C(=O)N1CCc1cccc2ccccc12 (stereo partly specified)	nt	nt	nt	nt	i	0.86	98
CC(CCc1ccccc1)NC(=O)c1nnc(Cc2ccc(F)cc2)o1 (stereo unspecified)	5	15	112	-0.2	nt	nt	102
COc1cc(OC)cc(C(=O)Nn2cnnc2)c1	nt	nt	nt	nt	i	1	99
CC(C)(C)NC(=O)CSc1nsc(SCC(=O)NC(C)(C)C)c1C#N	-3	64	55	-2.2	i	0.82	100
COc1cc(NC(=S)NN2CCOCC2)cc(OC)c1	-2	-34	18	-1.1	i	0.91	nt
CCOC(=O)c1cnn(-c2ccc(C(F)(F)F)cn2)c1N	-4	31	94	-2.4	i	1	101
CC(C)COc1ccc(/C(O)=C2/C(=O)C(=O)N(CCN(C)C)C2c2ccncc2)cc1 (stereo unspecified)	4	nt	nt	-2.5	i	1	158
O=C(CN1CCOCC1)Nc1ccc2c(c1)OCO2	-3	33	156	nt	i	0.97	102
Cc1cccc(-c2nc(CSc3nc4c(c(=O)[nH]3)CCC4)c(C)o2)c1	-11	-71	111	-0.5	nt	nt	90
O=C(Nc1ccccc1CC[N+](=O)[O-])N1CCN(c2ccccc2)CC1	-5	-7	105	nt	i	0.82	103
CCC(C)NC(=S)Nc1ccccc1 (stereo unspecified)	nt	nt	nt	nt	i	1.2	104
COc1ccc(C(=O)NC(=S)Nc2ccc(N3CCN(C(C)=O)CC3)cc2)cc1[N+](=O)[O-]	nt	nt	nt	nt	i	0.94	102
CCC(=O)N1CCCn2c1nc1ccccc12	-10	nt	nt	-1.2	i	1.2	101
CCOC(=O)c1cc2sc(C)cc2n1CC(=O)N1CCc2ccccc21	-1	-24	84	0.1	i	0.94	104
COc1ccc2c(c1)CC(C1(O)C(=O)Nc3ccccc31)C2=O (stereo unspecified)	5	14	66	-0.6	i	0.84	40
COc1ccc(Cl)c(Cn2c(NCc3ccco3)nc3c2c(=O)n(C)c(=O)n3C)c1	-1	-45	95	-2.9	i	0.81	98
Cc1cc(C(=O)N2CCN(C(=O)C3CCCO3)CC2)no1 (stereo unspecified)	-4	25	121	-1.5	i	1.1	108
COc1ccc(-c2ncncc2-c2csc(C)n2)c(O)c1	6	38	65	-2.8	i	0.93	105
Cc1ccc(/C=[N+](/C)[O-])cc1	3	20	114	nt	i	1	99
CCOC(=O)c1[nH]c(C)c(CN(CCc2ccccc2)S(C)(=O)=O)c1C	7	nt	nt	1.1	i	1.1	103
COC(=O)[C@@H](NC(=O)O[C@@H]1C(=O)c2cc(Br)ccc2O[C@H]1c1cccc(OC)c1)C(C)C	-6	-24	85	-2.0	nt	nt	82
CC(=O)CCc1ccc(OC(=O)c2cccnc2)cc1	-3	-43	86	-0.5	i	0.97	100
Cc1cc(-c2ccc(Br)s2)nc(-n2cccc2)n1	-7	nt	nt	nt	i	0.97	102
COc1ccc2c(c1)c1ncn(CCN3CCNCC3)c(=O)c1n2C	0	0	127	0.0	i	0.6	102
CC(OC(=O)C1CCCCC1)c1nc2ccccc2[nH]1 (stereo unspecified)	3	nt	nt	-1.2	i	1	99
Cn1c(SCc2ccc(Cl)cc2)nnc1-c1ccc2nonc2c1	nt	nt	nt	nt	i	1.1	104
c1ccc(-c2cnnc(N3CCCCC3)n2)cc1	-21	-10	139	-1.8	i	0.9	105
O=C(NCC(=O)N(Cc1ccccc1)C(C(=O)NC1CCCC1)c1ccncc1)c1ccco1 (stereo unspecified)	-2	-60	91	-1.3	i	1	104
CC[n+]1ccc(/C=C2\Sc3ccccc3N2CCCS(=O)(=O)[O-])c2ccccc21	-5	-392	105	nt	i	1.2	98
CC(=O)OC(C(=O)n1nc(C)cc1C)c1ccccc1 (stereo unspecified)	-11	-347	30	-0.1	i	0.9	104
CSc1nc2ccc(S(=O)(=O)NC3CCCCC3)cc2s1	-7	14	129	-2.5	nt	nt	87
S=C1SCN(Cc2ccco2)CN1Cc1ccco1	nt	nt	nt	nt	i	0.97	100
O=c1cc(CSc2ccc(Cl)cc2)nc(-c2ccncc2)[nH]1	3	-47	76	nt	i	0.79	107
CCN1CCN(C(=S)Nc2ccc3nc(N4CCN(CC)CC4)cc(C)c3c2)CC1	6	12	148	-1.8	i	0.74	98
CCc1ccccc1NC(=S)N(CCCN1CCOCC1)Cc1ccccn1	4	22	59	-0.8	i	1	103
Cc1nc2ncnn2c(C)c1Cc1ccc(Cl)cc1	-5	16	118	7.9	i	0.94	60
CCOC(=O)c1c(NC(C)=O)sc2c(OCCN(CC)CC)c(Br)ccc12	-11	-52	107	nt	i	0.53	93
Cc1ccc(S(=O)(=O)/N=C(\Nc2cccc(C)c2)Nc2nc(C)cc(C)n2)cc1	-6	-30	70	-0.9	i	1	169
COc1c(C)cc(Br)cc1C(=O)Nc1ccccc1N1CCN(C(=O)c2ccccc2)CC1	-6	0	116	nt	i	1	100
Cc1c(C(=O)OC2CCCCC2)[nH]c2c1C(=O)CC(C)(C)C2	-6	-24	121	2.5	i	0.78	103
CCO[C@@H]1OC(C(=O)NCc2ccccc2)=C[C@H](C2CC2)[C@H]1CCCO	3	nt	nt	nt	i	0.95	103
CCN(CC(=O)Nc1ccc(NC(C)=O)cc1)C(=O)C(c1ccccc1)c1ccccc1	1	-22	91	-0.8	i	1	103
CCOc1ccc(N(CC)C(=O)c2nn(-c3ccc(OC)cc3)c(=O)c3c2c2ccccc2n3C)cc1	-1	nt	nt	nt	i	1.1	101
CN=C1SC(CC(=O)Nc2ccc(N3CCOCC3)cc2)C(=O)N1C (stereo unspecified)	9	54	88	-2.1	i	1.1	99

Compound activity deposited in PubChem by several laboratories.
